# Bioassay records deposited in PubChem BioAssay by several laboratories.
# UCH37 inh = inhibitors of human deubiquitinating enzyme UCH37 | Q9Y5K5 | purified proteasome/UCH37, Ub-AMC cleavage fluorescence | inhibition, % (concentration not given with the values) | 330,000 tested, 0.33% active | AID 588478;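 active = mean of two replicates above 20%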;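 also: 0% = compound-free wells with enzyme and 100% = wells lacking proteasome; stock transfer was 100 nL into about 20 µL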
#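 Material: Human UCH37 enzyme supplied as purified proteasome complex | Schedule: 30 min compound-proteasome preincubation then 25 min substrate reaction, room temperature | Detection: AMC fluorescence from Ub-AMC cleavage, excitation 355 nm, emission 460 nm | Benchmarks: Wells without proteasome as full block, compound-free enzyme plus substrate as uninhibited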
# MLL AF4-AF9 inh = MLL-AF4/AF9 protein interaction inhibition. inhibition, % at 10 µM. AID 651704. AlphaScreen, biotin-AF4 peptide binding to FLAG-AF9. P42568. 350,000 tested, 0.47% active;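 active = every replicate reaching a set inhibition limit, whatever the replicate mean, cut at about 25% in these data; inconclusive = mean inhibition reaches that limit but some replicates miss it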;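 also: 0% = plate neutral control median and 100% = total signal loss; the record names both 10 and 1 µM as test concentration; the first replicate is given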
# Target sequence (P42568 whole entry, looked up): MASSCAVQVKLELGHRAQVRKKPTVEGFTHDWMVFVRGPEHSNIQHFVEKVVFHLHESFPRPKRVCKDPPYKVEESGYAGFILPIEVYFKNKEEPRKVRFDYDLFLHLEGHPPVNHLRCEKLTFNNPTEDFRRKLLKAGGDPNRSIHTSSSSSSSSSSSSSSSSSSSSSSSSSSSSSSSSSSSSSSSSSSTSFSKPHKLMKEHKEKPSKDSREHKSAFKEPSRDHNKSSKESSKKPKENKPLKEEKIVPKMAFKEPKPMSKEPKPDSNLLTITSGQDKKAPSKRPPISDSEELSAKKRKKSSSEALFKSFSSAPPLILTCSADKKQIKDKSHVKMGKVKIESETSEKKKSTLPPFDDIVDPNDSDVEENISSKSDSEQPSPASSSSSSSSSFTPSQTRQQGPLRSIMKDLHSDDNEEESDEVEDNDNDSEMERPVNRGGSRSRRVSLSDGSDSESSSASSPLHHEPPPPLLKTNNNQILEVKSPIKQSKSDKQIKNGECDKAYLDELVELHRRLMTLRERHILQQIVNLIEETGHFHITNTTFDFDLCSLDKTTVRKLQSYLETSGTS
# E coli growth = E. coli growth inhibition; Escherichia coli growth, OD600, 23 h; active compounds read low; OD600 absorbance (test concentration not listed); 330,000 tested, 0.21% active; AID 1053175;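 active = OD600 absorbance below the run mean of sample wells minus 3.6 SD, in any replicate, cut at about 0.56 in these data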;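 also: stock transfer was 300 nL into about 60 µL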
# HNF4A DNA FP = change in binding of human HNF4 alpha to DNA. activity change, % at 10 µM. 360,000 tested, 0.3% active. HNF4a-FITC DNA binding, fluorescence polarization, 1 h. P41235; in the data active = activity change above about 30%, passing the limit was not always enough;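 also: controls were the assay level and a saturating level of protein; the project sought stronger binding though the title names inhibitors; some compounds called inactive have numbers as strong as hits; positive values seem to mean higher polarization but the record does not say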
# Target sequence (P41235 whole entry, looked up): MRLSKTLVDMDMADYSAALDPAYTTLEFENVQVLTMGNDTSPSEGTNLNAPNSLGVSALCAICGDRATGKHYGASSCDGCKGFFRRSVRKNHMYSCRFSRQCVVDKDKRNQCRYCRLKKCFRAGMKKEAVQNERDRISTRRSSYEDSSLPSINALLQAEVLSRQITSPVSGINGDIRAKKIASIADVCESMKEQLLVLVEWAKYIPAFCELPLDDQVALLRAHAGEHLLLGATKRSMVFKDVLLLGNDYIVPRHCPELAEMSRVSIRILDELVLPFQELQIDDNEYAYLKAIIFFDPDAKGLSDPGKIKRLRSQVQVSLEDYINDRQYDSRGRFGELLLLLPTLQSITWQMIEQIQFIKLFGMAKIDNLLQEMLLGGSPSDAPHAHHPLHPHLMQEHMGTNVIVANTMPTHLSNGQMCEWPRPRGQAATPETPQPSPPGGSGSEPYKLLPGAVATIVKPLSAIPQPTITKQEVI
# RanGTP-Imp inh = disruptors of Ran-importin-beta complex formation – biochemical, FRET, CFP-Ran, YFP-importin-beta, homogeneous, primary screen | cell-free CFP-Ran/YFP-importin-beta FRET ratio | inhibition, % (no concentration beside the values) | 300,000 tested, 1.1% active;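 active = most replicates above 15%; inconclusive = exactly half above 15%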;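 also: 0% = DMSO wells and 100% = Ran loaded with GDP instead of GTP; wells of about 40 µL received 100 nL stock; the first replicate is given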
# Vif TR-FRET = inhibitors of Vif binding to APOBEC3G peptide, primary screen, biochemical, TR-FRET, GST-Vif 1-94, biotin-A3G peptide, dose response retest (AID 1117319); TR-FRET GST-Vif / biotin-A3G peptide binding; higher % means a stronger effect; test concentration not given here; strong numbers were not always called active; one-dose inhibition, %; IC50 in µM for titrated hits; 260,000 tested, 0.57% active;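 active = above the screen mean plus three standard deviations and confirmed in dose response; inconclusive = results disagree or hit not tested in dose response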;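 also: Vif residues 1-94 fused to GST binding biotinylated APOBEC3G peptide 110-148; 0% = full assay without inhibitor and 100% = GST in place of GST-Vif; retest series ran down from 100 µM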
# FGF22 binding = binders of recombinant human FGF22 by thermal shift. AID 651658. 340,000 tested, 1.5% active. calls only at 9.99 µM. Q9HCT0. SYPRO orange fluorescence; percent of sucrose octasulfate shift, DMSO zero;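 active = melting point raised past a set limit in the mean and every replicate; inconclusive = no clear call; three in four hits are not shown here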
# * = called active by the depositor; i = inactive; ? = inconclusive; · = no result given; & = joins results of further samples. This is a subset; the hit share may differ from the screen's.
structure	UCH37 inh	MLL AF4-AF9 inh	E coli growth	HNF4A DNA FP	RanGTP-Imp inh	Vif TR-FRET	FGF22 binding
O=S(=O)(c1ccc2c(c1)CCN2)N1CCOCC1	-0.2	-11	0.71	1.8	·	11%	i
Clc1cccc(OCCCn2ccnc2)c1	0.6	-3.8	0.67	-5.4	0.9	·	i
O=C(N/N=C/c1ccc(O)c2ccccc12)c1cccnc1	·	-0.1	·	3.4	1.4	·	i
CC1(Oc2cccnc2Cl)CCN(Cc2ccc(OC(F)(F)F)cc2)C1 (stereo unspecified)	·	5.7	·	1.8	·	·	i
CCC(C)NC(=O)CCn1c(=O)c2cccn2c2ccc(F)cc21 (stereo unspecified)	0.4	2.2	0.69	-3.8	-2.2	-12%	i
CC(C)(C)SCCNS(=O)(=O)c1ccccc1	1.7	4.0	0.66	4.3	-1.8	1%	i
Cc1cc(Cl)c(S(=O)(=O)NCC2CCCO2)cc1OCC(=O)NC1CCCCC1 (stereo unspecified)	2.4	·	0.66	1.5	-3.6	77µM*	·
COC(=O)C[C@H]1C=C[C@H](NC(=O)Nc2ccccc2OC)[C@@H](CO)O1	·	-1.0	·	0.1	·	·	·
O=C(c1ccc(NS(=O)(=O)c2ccc(F)cc2)cc1)N1CCCCCC1	3.4	9.0	0.68	-0.7	-2.5	-4%	i
Cc1ccc(C(=O)NC(C)C2CCCO2)o1 (stereo unspecified)	-1.4	0.6	0.68	-4.9	-2.3	1%	i
OC[C@@H]1CN(CCN2CCOCC2)C[C@H](n2cnc3c(NC4CCC4)ncnc32)O1	·	-5.0	·	-0.9	·	·	i
O=C(CC1SCCNC1=O)Nc1ccc(Cl)cc1 (stereo unspecified)	1.1	10.0	0.68	4.1	1.5	82%	i
CCOC(=O)c1sc(NC(=O)Cc2ccccc2OC)nc1C	2.3	-2.0	0.7	-1.5	-0.1	·	i
CC(C)C[C@H]1CN(CCCC[C@H]2CNC(=O)C(=O)N2CCc2ccc(O)cc2)C(=O)C(=O)N1Cc1ccccc1	·	2.0	·	-0.8	·	·	i
C#CCNC(=O)C1=C[C@@H](C)C[C@@H](OCc2ccc(CO)cc2)O1	2.5	-3.4	·	0.8	0.1	21%	i
O=C(COC(=O)c1nc(-c2ccccc2)n(-c2cccc(C(F)(F)F)c2)n1)NCc1cccs1	3.5	1.3	0.69	-2.0	1.1	·	i
COCCN1C(=O)CCC1(C)c1nnnn1-c1ccc2c(c1)OCCO2 (stereo unspecified)	·	-0.5	·	1.7	·	·	i
COC(=O)CC1=NN(c2ccccc2)C(=O)C1	1.8	-2.3	0.7	0.2	-5.7	21%	·
CN(CCOc1ccc(Cl)cc1)C(=O)CN1C(=O)NC2(CCCCC2)C1=O	-0.2	-18	0.71	1.2	4.6	2%	i
CCOc1ccc(NC(=O)CN2CCc3cc4c(cc3C2)OCCCO4)cc1OCC	2.0	2.0	0.67	0.5	-3.3	·	i
COc1ccc(C)cc1NC(=O)c1cccc(C(=O)Nc2cc(C)ccc2OC)n1	-3.4	0.0	0.7	0.3	1.1	·	i
COc1ccc(OCC(=O)N2CC3(C)CC2CC(C)(C)C3)cc1 (stereo unspecified)	2.0	·	0.71	1.1	1.0	-6%	·
COCCCN(CC(=O)O)S(=O)(=O)c1cccc(Cl)c1	-2.5	-1.5	0.71	-0.5	-4.0	0%	i
Cc1cc(C(=O)Nc2ccccc2C(=O)O)c(C)o1	2.8	-1.5	0.61	3.9	-3.7	0%	i
CN(C(=O)CN1C(=O)S/C(=C\c2ccccc2F)C1=O)C1CCS(=O)(=O)C1 (stereo unspecified)	6.4	0.8	0.71	-1.8	-1.3	·	i

# Part of the list above, with values under each structure:
# Results follow in this order: UCH37 inh	MLL AF4-AF9 inh	E coli growth	HNF4A DNA FP	RanGTP-Imp inh	Vif TR-FRET	FGF22 binding
- CC1(Oc2cccnc2Cl)CCN(Cc2ccc(OC(F)(F)F)cc2)C1 (stereo unspecified)
  ·	5.7	·	1.8	·	·	i
- CCC(C)NC(=O)CCn1c(=O)c2cccn2c2ccc(F)cc21 (stereo unspecified)
  0.4	2.2	0.69	-3.8	-2.2	-12%	i

# Next part
structure	UCH37 inh	MLL AF4-AF9 inh	E coli growth	HNF4A DNA FP	RanGTP-Imp inh	Vif TR-FRET	FGF22 binding
CCC(C)(C)NC(=O)C(c1ccccn1)N(C(=O)c1csnn1)c1ccc(C)cc1 (stereo unspecified)	3.5	-1.3	0.71	0.0	1.2	·	i
O=C1N/C(=N\S(=O)(=O)c2ccccc2)S/C1=C\c1cc([N+](=O)[O-])ccc1O	·	0.0	·	14	-54	·	i
CCN(C(=O)c1cc(OC)c(OC)c(OC)c1)C1CCCCC1	·	-1.7	·	-2.7	·	3%	i
Cc1nn(Cc2c(F)cccc2Cl)c(C)c1NC(=O)C1CC1	1.4	·	0.63	-1.5	7.6	0%	·
COc1ccc(C(=O)Nc2ccc(OCc3ccccc3)cc2)cc1[N+](=O)[O-]	2.1	·	0.73	3.3	-8.8	-8%	·
CCC1(C)CC(CCNS(=O)(=O)c2ccc(C)cc2)(c2ccc(C)cc2)CCO1 (stereo unspecified)	3.5	·	0.68	-3.1	-1.0	-2%	·
O=C(NCc1ccc2c(c1)OCO2)c1ccc(Br)s1	0.9	-97	0.68	-1.5	5.7	-1%	i
COCCN1C[C@@H](CO)O[C@@H](n2cnc3c(NC4CC4)ncnc32)C1	·	-2.6	·	-3.5	·	·	i
O=C(CN1CCN(CC(=O)Nc2ccccc2Cl)CC1)NCC1(N2CCCCC2)CCCCC1	3.6	4.1	0.68	3.6	·	·	i
O=C(Nc1nccs1)c1cccnc1	1.6	-0.8	0.68	0.7	-2.0	·	i
O=C(NCc1ccccc1)c1csc2c1CCCC2	4.2	-2.7	0.73	3.5	-0.5	·	i
O=C(c1ccc(S(=O)(=O)N2CCCCC2)cc1)N1CCCC(C(F)(F)F)C1 (stereo unspecified)	0.0	2.4	0.69	-1.0	6.6	-2%	i
CSc1ccccc1C(=O)C1CCCN(C(=O)c2cccc(Cn3cccn3)c2)C1 (stereo unspecified)	·	-1.2	·	3.6	·	·	i
CCN(c1ccc(NC(=O)c2ccc(Cl)nc2)cc1)C(C)C	2.7	0.1	0.7	0.5	0.0	·	i
C[C@H]1CN([C@@H](C)CO)C(=O)CCCn2nncc2CO[C@H]1CN(C)S(=O)(=O)c1ccc(Oc2ccccc2)cc1	·	2.1&-11&11	·	2.7	·	7%	i
CS(=O)(=O)NCCCNc1ccc(C(F)(F)F)cc1[N+](=O)[O-]	5.7	2.6	0.66	-2.7	-1.1	·	i
Nc1nc(NC(=O)c2ccco2)nn1-c1ccccc1	0.5	·	0.68	1.8	3.3	2%	·
Cc1ccc(NC(=O)CS(=O)CC(=O)N2CCN(C3CCCC3)CC2)cc1 (stereo unspecified)	1.7	-0.2	0.69	3.1	4.3	·	i
COc1ccc(-c2cnn3c(N)c(S(=O)(=O)C(C)(C)C)cnc23)cc1	5.4	·	0.71	-4.4	3.3	6%	·
CC(C)(C)c1ccc(C(=O)Nn2cnnc2)cc1	1.4	1.7	0.68	3.0	-0.4	·	i
O=c1c2ccccc2oc2cc(C#Cc3ccccn3)ccc12	-0.1	·	0.66	4.8	-0.4	·	i
COC(=O)C1=CCCCC(O)=C1C(=O)OC	·	-1.1	·	-0.7	·	5%	i
Cn1c(=NC(=O)C2CCCCC2)sc2cc([N+](=O)[O-])ccc21	0.7	1.2	0.67	-3.1	9.5	1%	i
CSc1nc(C)cc(Oc2ccc(=O)[nH]n2)n1	1.9	-0.4	0.64	-3.1	-4.1	-4%	i
COc1ccc(NC(=O)CNC(=O)Cc2ccccc2)cc1OC	-1.1	-2.4	0.7	3.1	3.2	·	i
COc1ccc(-n2c(SCC(=O)Nc3cc(C)on3)nc3c(c2=O)SC(C)C3)cc1 (stereo unspecified)	·	2.5	·	4.4	·	4%	i
CC(C)C(=O)N1CCC(n2nccc2NC(=O)CCc2ccccc2)CC1	0.3	-1.0	0.59	4.6	1.8	·	i
O=S(=O)(Nc1ccc(Cl)cn1)c1ccccc1	-2.0	-1.8	0.74	5.4	-0.2	·	i
Cc1[nH]nc(SCC(=O)NC2CCCC2)c1[N+](=O)[O-]	3.1	0.6	0.68	-0.4	3.0	0%	i
CCCn1c(N)c(N(CCOC)C(=O)c2cc(C)cc(C)c2)c(=O)[nH]c1=O	2.8	-0.6	0.65	35*	?	-3%	i
CCCCN(C(=O)c1ccc2c(c1)OCO2)c1c(N)n(CCCC)c(=O)[nH]c1=O	8.0	·	0.64	-0.4	-1.6	5%	·
COc1ccccc1N1CCN(C(=O)c2ccc(Cn3c(=O)[nH]c4ccsc4c3=O)cc2)CC1	0.3	13	0.68	-6.6	-4.2	20%	i
COc1ccc(NC(=O)C2CCCN(c3cnccn3)C2)cc1 (stereo unspecified)	-5.5	-1.2	0.7	3.4	2.4	5%	i
CC(Oc1ccc(Cl)cc1Cl)C(=O)NC1=NN(c2ccccc2)C(=O)C1 (stereo unspecified)	3.8	·	0.77	2.1	4.9	12%	·
O=C1OCCN1C(=O)[C@H]1[C@H](c2ccc([N+](=O)[O-])cc2)C(c2cccc(Cl)c2)=NN1c1ccccc1	5.9	2.0	·	3.8	-0.9	6%	i
CCOC(=O)Cc1nnc(NC(=O)c2ncn[nH]2)s1	3.5	·	0.69	-1.4	1.7	11%	·
Cc1cccc(NC(=O)c2cc(=O)c3ccccc3o2)c1	4.3	-1.4	0.7	0.4	1.3	1%	i
Cc1ccc(C(=O)Nc2cccc(-c3cn4ccccc4n3)c2)cc1	-5.0	-3.8	0.63	-1.1	2.6	-9%	i
O=C(Nc1ccc2c(c1)OCCO2)C1CCCN(S(=O)(=O)c2cccs2)C1 (stereo unspecified)	-0.1	·	0.78	-1.4	-5.1	4%	·
CCN(CC)S(=O)(=O)c1ccc(NC(=S)NC(=O)C2CCC2)cc1	4.8	-16	0.74	-6.1	10	-3%	i
Cc1cc(NC(=O)c2ccco2)sc1C	3.9	1.3	0.64	-2.5	·	-8%	i
CCCN(c1ccc(OCC)cc1)S(=O)(=O)c1ccc2c(c1)CCN2C(=O)CCC(=O)O	0.8	·	0.63	-2.6	?	?	·
CC(C)n1nnnc1C1c2ccccc2C(=O)N1Cc1ccccc1 (stereo unspecified)	·	0.1	·	-0.2	·	·	i
COc1ccccc1-c1cnc(C(O)c2cccc(F)c2)[nH]1 (stereo unspecified)	·	3.7	·	-0.2	·	·	i
O=C(/C=C\Nc1ccc(Cl)cn1)c1ccc(Br)cc1	-2.2	1.1	0.73	0.7	5.6	3%	i
Cc1ccc2[nH]c3c(=O)n(CCc4cnc[nH]4)cnc3c2c1	-8.6	-5.7	0.72	-1.9	1.4	4%	·
Cc1cnc(C(=O)Nc2ccccc2F)cn1	1.1	·	0.71	-2.2	-1.1	6%	·
COC(=O)c1cccc(C23CC4(C2)[C@H](CN(Cc2ccc(C(F)(F)F)cc2)[C@@H]4c2ccccc2)C3c2ccccc2)c1 (stereo partly specified)	1.7	·	·	11	-0.7	9%	·
COc1cccc(CN2CC(C(=O)NC3CCCCCC3)CCC2=O)c1 (stereo unspecified)	-0.6	-1.5	0.69	2.7	0.1	·	i
CCOC(=O)c1c(C)n(C)c2ccc(OCC(O)Cn3nc(C)cc3C)cc12 (stereo unspecified)	2.1	·	0.71	-4.4	-0.8	-1%	·
COc1ccc(CN2CCC(C)(Oc3ccc(C(C)=O)cc3)C2)c2ccccc12 (stereo unspecified)	·	3.0	·	0.7	·	·	i
